Source: PubChem BioAssay
gsp antagonist: antagonists of gsp mutant (McCune-Albright syndrome). 340,000 tested, 0.4% active. AID 624288. gsp-mutant cells, cAMP HTRF, 30 min; control for the full effect not named in the record. Potency, µM (titrated, usually from 76.9 µM), for the others: at the top dose activity change, negative = inhibition, actives largely listed as inhibitors; active = falling curve of any shape with a large fitted effect; inconclusive = falling curve, mostly with a smaller effect; inactive = flat or rising curve; cell line not stated here;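 also: intracellular cAMP measured with PDE inhibitor Ro 20-1724 present during compound exposure; potency is read from the fitted curve at half-maximal effect; % is scaled to controls: 0 for no effect and ±100 for the full control effect; nearly all actives have a fitted effect of over 65% in size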
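Cells, 2000/well, grown 16–24 h in DMEM 10% FBS with 0.5 mg/ml G418, then compounds plus […] (300 uM addition stock), 30 min at 37C. cAMP read by HTRF (cAMP-d2 and anti-cAMP antibody-K in lysis buffer) after 30 min RT.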
Menin MLL FP FL: displaces fluorescein MLL peptide from human menin | FP activity change, % at 61.4 µM | Fluorescence polarization, fluorescein-MLL peptide displacement from menin | 290,000 tested, under 10 active; inconclusive = falling polarisation curve, or a change in total fluorescence; inactive = total fluorescence flat and polarisation flat or rising; no compound was filed as active; the % refers to the polarisation; negative = inhibition;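 also: % of control where 0% means no effect; inhibitors lower the polarisation; unlabelled MLL peptide was the positive control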
TRPV1 PAM: enhances activation of the human vanilloid receptor TRPV1. TRPV1-expressing cells, Fluo-8 calcium influx, capsaicin EC20 potentiation; host cell line not named in the record; control for the full effect not named in the record. potentiation, % at 8.33 µM. 320,000 tested, 0.02% active; active means potentiation above 80%; inconclusive means 30% to 80%; inactive means below 30%; also: 0% is about no effect
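Fluo-8 calcium influx in TRPV1-expressing cells, kinetic read (ex 480/em 520 nm). Compound added and read 3 min for agonist activity, followed by capsaicin at EC20 final and 2 min further read for enhancement.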
ClpP mod: qHTS Assay for Activators of ClpP; Potency, µM (titrated, usually from 57.5 µM), inactives show at the top dose activity change, negative = active; purified B. subtilis ClpP, FRET peptide cleavage, 20 min; 340,000 tested, 1.9% active; ATP-dependent Clp protease proteolytic subunit (Bacillus subtilis (strain 168)), P80244; active = well fitted falling curve with a large enough effect; inconclusive = small, poorly fitted or top-dose-only effect; inactive = no such curve, though single readings can be large or run the other way; also: potency is read from the fitted curve at half-maximal effect; the source files actives as falling curves though it sought activators and does not explain the sign; nearly all actives have a fitted effect of over 65% in size; many hits overshoot -100%
Target sequence (P80244 whole entry, looked up): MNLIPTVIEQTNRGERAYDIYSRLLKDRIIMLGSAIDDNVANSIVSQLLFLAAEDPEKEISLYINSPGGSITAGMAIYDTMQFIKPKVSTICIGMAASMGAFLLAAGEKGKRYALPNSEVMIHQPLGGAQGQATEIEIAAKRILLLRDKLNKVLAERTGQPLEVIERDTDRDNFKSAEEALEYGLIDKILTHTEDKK
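ClpP 10 microg/mL final, pH 8 Tris/KCl buffer with BSA, glycerol, Tween-20; compound pinned in; FRET-FV substrate; RT 20 min; Ex320/Em430; ΔFRET vs ADEP 5.8 microM, DMSO, no enzyme.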
Sfp PPTase inh: inhibitors of Bacillus subtilis Sfp phosphopantetheinyl transferase | Q9F4F7 | Biochemical Sfp PPTase activity, qHTS | Potency, µM, inactives show max response, negative = inhibition, usual class: inhibitors | 310,000 tested, 3.5% active | AID 1490; active = well fitted inhibition curve with a large enough effect; inconclusive = small, poorly fitted or top-dose-only effect, or another doubt; inactive = no such curve, though single readings can be large or run the other way;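 also: the enzyme is Sfp with the accession as filed and its product quenches rhodamine fluorescence; potency is read from the fitted curve at half-maximal effect; 0% = enzyme reaction without inhibitor and -100% = no enzyme wells; top concentration of the series not given in the record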
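Step 1, compound plus 15 nM Sfp-PPTase, 15 min, room temperature. Step 2, add rhodamine-CoA (5 uM) and BHQ-2-YbbR (12.5 uM). Step 3, read 525/598 nm fluorescence at 0 and 30 min.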
D2 potentiator: potentiates the human D2 dopamine receptor allosterically; DiscoveRx D2 beta-arrestin cells, luminescence, 90 min; 100% = 57 uM dopamine signal; potentiation, % (concentration not given with the values); AID 624464; 360,000 tested, 0.23% active; P14416; active = potentiation of 50% or more; inconclusive = 30% to 50%; inactive = 30% or less;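 also: compound concentration not given in the record; tested on top of an EC20 dose of dopamine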
Target sequence (P14416 whole entry, looked up): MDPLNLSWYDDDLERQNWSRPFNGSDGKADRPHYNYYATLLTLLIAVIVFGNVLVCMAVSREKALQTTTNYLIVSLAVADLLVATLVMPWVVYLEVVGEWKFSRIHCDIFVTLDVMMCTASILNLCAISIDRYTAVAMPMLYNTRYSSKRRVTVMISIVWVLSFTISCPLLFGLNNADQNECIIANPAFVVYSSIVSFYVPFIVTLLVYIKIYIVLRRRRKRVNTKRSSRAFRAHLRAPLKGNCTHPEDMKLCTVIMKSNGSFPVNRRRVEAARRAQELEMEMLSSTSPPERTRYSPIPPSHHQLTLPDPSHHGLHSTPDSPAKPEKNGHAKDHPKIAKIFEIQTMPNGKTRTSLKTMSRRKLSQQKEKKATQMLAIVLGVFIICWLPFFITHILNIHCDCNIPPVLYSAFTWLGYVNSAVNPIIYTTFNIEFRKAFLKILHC
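D2 cells co-treated with compound plus 50 nM dopamine (EC20) for 90 min at 37 deg C to detect potentiation. Beta-arrestin recruitment was read as enzyme-fragment luminescence after 1 h at ambient temperature. Full response was set by 57 uM dopamine.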
gsp ag: gsp mutant agonism | gsp mutant cells, cAMP HTRF, 30 min; control for the full effect not named in the record | Potency, µM (top dose mostly 76.9 µM), for the others: at the highest dose activation (cAMP increase), usual class: activators | 340,000 tested, 0.13% active | AID 624287; active = well fitted activation curve with a large enough effect; inconclusive = small, poorly fitted or top-dose-only effect, or another doubt; inactive = no such curve, though single readings can be large or run the other way; cell line not stated here;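 also: phosphodiesterase inhibitor Ro 20-1724 added with compounds to block cAMP breakdown; potency is read from the fitted curve at half-maximal effect; nearly all actives have a fitted effect of over 60% in size; about a fifth of the inactives were tested at one dose only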
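Cells in DMEM/10% FBS with G418 were pretreated with compounds in DMSO plus […] (300 uM stock) for 30 min at 37C. cAMP was measured by HTRF (cAMP-d2 plus anti-cAMP antibody-K) after 30 min at room temperature.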
* hit, by the source's call; ? = inconclusive; . = not tested or not shown; [ ] = another dose, or the depositor's remark.

SMILES	gsp antagonist	Menin MLL FP FL	TRPV1 PAM	ClpP mod	Sfp PPTase inh	D2 potentiator	gsp ag
C=CCN(C(=O)c1csnn1)C(C(=O)NC1CCCCC1)c1ccccc1F (stereo unspecified)	3%	3.8	-1	-0.5%	6%	-2	-18%
O=S(=O)(c1ccccc1)N(CC(O)COc1ccccc1)c1ccccc1 (stereo unspecified)	-9%	2.0	.	.	18%	-4	-11%[15.4 µM]
O=C(Nc1cccc2c1CCCC2)c1cccc(F)c1	-2%	-1.8	-1	-1.0%	2%	-6	-6%[15.4 µM]
C=C1CCC[C@]2(C)C[C@H]3OC(=O)C(CNCC(OC)OC)[C@H]3CC12 (stereo partly specified)	3%	4.0	22	.	8%	-1	-31%[inhibitor]
COc1ccc(/C(N)=N/OC(=O)CSc2ccccc2)cc1	-26%	-3.1	4	1.9%	-2%	28	0%
O=C(COc1ccc(Cl)cc1)OCC(=O)N1CCCc2ccccc21	-12%	1.3	-6	-2.2%	-1%	-10	2%
COc1cccc2cc(-c3ccnc(=S)[nH]3)oc12	.	-0.7	11	.	5%	.	.
O=C(O)CCNC(=O)c1cncc(Br)c1	-1%	-2.5	-5	-0.2%	6%	-6	-37%[inhibitor]
O=C(NC1CCCC1)c1cc(-c2ccccc2)on1	8%	2.3	-7	.	11%	-4	5%
Cc1noc(C)c1NC(=O)Nc1ccc2c(c1)C(=O)N([C@H](C)CO)C[C@H](C)[C@@H](CN(C)C(=O)NC(C)C)O2	7%	.	.	2.4%	.	-4	.
O=[N+]([O-])c1ccccc1OC/C(=N\O)c1ccccc1	0%	1.1	24	.	13%	-2	4%
CS(=O)(=O)N(CC(=O)N1CCN(Cc2ccc3c(c2)OCO3)CC1)c1ccc2c(c1)OCO2	-8%	0.9	1	-0.6%	8%	-15	15%
Fc1ccc(-c2noc(-c3ccc4c(c3)CCO4)n2)cc1	7%	0.2	.	.	-6%	-4	-12%[15.4 µM]
CCC1(C)Cc2sc3c(=O)[nH]c(=S)[nH]c3c2CO1 (stereo unspecified)	2%	6.6	7	.	?	-11	-1%[15.4 µM]
COc1ccc(-c2cc(CNS(=O)(=O)c3ccc(NC(C)=O)cc3)on2)cc1	7%	.	11	0.8%	15%	-5	-16%[15.4 µM]
C=CCSc1nc(N)cc(=O)[nH]1	-5%	0.0	-1	-6.3%	18%	-7	-1%
O=C(Nc1nc2ccccc2n1CCN1CCCC1)C1CCCCC1	7%	-0.4	-42	0.1%	20%	-37	1%
N#Cc1cc([N+](=O)[O-])c(-n2nnc3ccccc32)c([N+](=O)[O-])c1	10%	4.4	-47	-0.1%	9%	-26	?
COc1cc2nc(CN(C)Cc3ccc(C(C)(C)C)cc3)[nH]c(=O)c2cc1OC	4%	1.5	8	-0.1%	-14%	-2	-91%[inhibitor]
COc1ccc(C(=O)Nc2c(N)nc(SCC(=O)Nc3ccc(C(C)=O)cc3)[nH]c2=O)cc1	-18%	.	11	-0.4%	-15%	14	-5%[15.4 µM]
CCOC(=O)c1cnn(CCOC(=O)C2CC2)c1NC(=O)C1CC1	-7%	4.0	17	-0.2%	10%	-5	-16%
O=C(CNS(=O)(=O)c1ccccc1)Nc1cccc([N+](=O)[O-])c1	8%	-4.9	16	-0.9%	11%	-8	2%
O=C(N/N=C/c1ccncc1)c1cc([N+](=O)[O-])cc([N+](=O)[O-])c1	10%	-0.1	4	-1.7%	0%	-3	4%
CCC(O)(C(=O)Nc1ccccc1C(F)(F)F)c1ccccc1OC (stereo unspecified)	8%	.	5	-1.1%	.	-5	-7%
Cc1cccc(NC(=O)CCc2nnc3ccc(N4CCC(C)CC4)nn23)n1	2%	.	2	-0.1%	17%	-10	5%

At a glance, part of the list above:
SMILES	gsp antagonist	Menin MLL FP FL	TRPV1 PAM	ClpP mod	Sfp PPTase inh	D2 potentiator	gsp ag
C=CCN(C(=O)c1csnn1)C(C(=O)NC1CCCCC1)c1ccccc1F (stereo unspecified)	3%	3.8	-1	-0.5%	6%	-2	-18%
O=S(=O)(c1ccccc1)N(CC(O)COc1ccccc1)c1ccccc1 (stereo unspecified)	-9%	2.0	.	.	18%	-4	-11%[15.4 µM]
O=C(Nc1cccc2c1CCCC2)c1cccc(F)c1	-2%	-1.8	-1	-1.0%	2%	-6	-6%[15.4 µM]

Other entries:
SMILES	gsp antagonist	Menin MLL FP FL	TRPV1 PAM	ClpP mod	Sfp PPTase inh	D2 potentiator	gsp ag
O=C(O)COc1ccc2c(c1)CCCC2	0%	-2.9	1	-2.0%	21%	-2	-4%
Cc1ccc2c(COC(=O)c3ccccc3OC(F)F)cc(=O)oc2c1	-9%	6.6	-7	.	-11%	-2	?
COc1cc(CC(NC(C)=O)C(=O)NC2CCN(c3c4c(nc5ncnn35)CCC4)CC2)cc(OC)c1 (stereo unspecified)	.	4.5	-4	.	8%	.	.
CCOC(=O)c1c(C)[nH]c(=S)c(C#N)c1-c1ccc(Cl)cc1	-18%	9.7	20	2.7%	-7%	-13	-21%
Cc1ccc(NC(=O)N(Cc2ccco2)C(C)c2ccco2)cc1C (stereo unspecified)	-29%	5.8	-19	-2.1%	0%	-19	-61%[inhibitor]
CCN1CCN(C(=O)c2ccc(N3CC4CC(C3)c3cccc(=O)n3C4)c([N+](=O)[O-])c2)CC1 (stereo unspecified)	5%	-0.9	3	.	9%	-7	-30%[15.4 µM]
O=C(Nc1nnc(-c2ccc(Br)cc2)o1)c1ccco1	-2%	.	12	1.2%	.	6	1%[15.4 µM]
COc1cc(/C(C)=N/NC(=O)CSc2nnc(C)s2)ccc1O	-1%	16	1	.	13%	-2	0%[15.4 µM]
CCc1ccccc1Nc1nc2ccccc2n1C	-4%	-4.1	12	.	25%	-7	1%
O=C(CN(C1CCCCC1)S(=O)(=O)c1ccc(F)cc1)NC1CC1	-3%	-0.3	8	2.3%	-9%	7	3%
COc1ccc(C(=O)c2cn[nH]c2-c2cc(C)ccc2O)cc1	6%	-1.1	7	-1.4%	9%	-7	1%
CC1(C)CC(CC(=O)O)C(=O)O1 (stereo unspecified)	9%	6.3	11	-2.1%	-9%	-1	12%
NC(=O)CS(=O)(=O)c1nc2ccccc2n1Cc1ccccc1F	-8%	2.7	3	-1.8%	29%	-6	3%
N=c1c(C(=O)NC2CCCC2)cc2c(=O)n3ccccc3nc2n1Cc1ccccc1	-4%	8.5	-9	-26%	-2%	2	-18%
COc1cc(C(C(=O)NC2CCCCC2)N(C(=O)c2cnccn2)c2ccccc2)cc(OC)c1OC (stereo unspecified)	-17%	0.5	5	.	1%	-2	-6%[15.4 µM]
Cc1ccc(C(=O)CCC(=O)OCC(=O)Nc2nnc(-c3ccccc3)o2)cc1	-13%	.	13	0.1%	.	9	0%
COC(=O)c1cccc(NC(=O)CN2CCN(Cc3ccccc3)CC2)c1	23%	4.7	20	-5.5%	17%	-21	-106%[inhibitor]
O=C(NS(=O)(=O)c1ccccc1[N+](=O)[O-])c1ccccc1	4%	.	1	-0.3%	29%	-9	-49%[inhibitor]
Cc1sc2nc(C3CC3)nc(NCCNS(C)(=O)=O)c2c1C	7%	-1.0	0	-2.8%	3%	-12	10%
COc1ccc(O)c(CN2CCCC(N3CCN(c4ccccc4OC)CC3)C2)c1 (stereo unspecified)	9%	4.7	1	.	12%	-24	-39%
O=C(O)CSCC(=O)Nc1ccc(C2CCCCC2)cc1	0%	0.4	-27	-2.0%	-8%	0	1%
Cc1cc(=O)oc2cc(OCc3ccc(C(=O)OCC(=O)N(C)C4CCS(=O)(=O)C4)cc3)ccc12 (stereo unspecified)	-13%	2.4	10	3.3%	20%	-2	-10%
Nc1nc(NCCCN2CCOCC2)nc(NCc2ccccc2)c1[N+](=O)[O-]	2%	0.5	2	.	-9%	-12	20%[15.4 µM]
C[C@H](NC(=O)c1nc[nH]c1C(=O)NCC(=O)OC(C)(C)C)c1ccccc1	13%	-0.6	-29	1.0%	10%	-4	29%
C=CCNc1nc(C2(C)CC3(CC(C)OC3=O)C(=O)O2)cs1 (stereo unspecified)	4%	3.0	20	-2.0%	-11%	-11	16%

(listing goes on)
SMILES	gsp antagonist	Menin MLL FP FL	TRPV1 PAM	ClpP mod	Sfp PPTase inh	D2 potentiator	gsp ag
O=C(CCNC(=O)c1ccc(Cl)cc1)NN1C(=O)NC2(CCCCC2)C1=O	8%	.	8	0.6%	.	-1	17%
O=C(Nc1ccc(OC(F)F)c(Cl)c1)c1ccccn1	-5%	-0.5	-7	-4.0%	8%	-13	10%
COc1cccc(CNC(=S)Nc2cc(C)cc(C)c2)c1	11%	0.1	-2	.	11%	-4	-19%
COc1cc(Nc2c3c(nc4ccccc24)CCC3)cc(OC)c1OC	30%[activator]	-2.3	24	0.9%	-9%	-13	5%[15.4 µM]
CC(=O)Nc1cccc(C(=O)Nc2cccc(S(=O)(=O)NCc3ccco3)c2)c1	4%	.	-17	0.6%	.	-4	16%
O=C(CSc1nnc(-c2ccccc2)o1)c1nnc(-c2ccccc2)o1	11%	?	26	-1.0%	-6%	-12	?
OC(COc1c(F)cc(Br)cc1F)CN1CCc2ccccc2C1 (stereo unspecified)	5%	2.8	7	2.8%	-5%	-77	-21%
COC(=O)C1=CN(C(C)c2ccccc2)C=C(C(=O)OC)C1c1cc(OC)c(OC)c(OC)c1 (stereo unspecified)	-14%	-0.9	-6	.	-6%	-9	3%
CN(C)CCCN(Cc1ccccc1)C(=S)NCc1ccccc1	13%	0.3	3	1.1%	21%	-19	-23%
CN(C)c1ccc(O)c2c1CC1CC3C(N(C)C)C(=O)C(C(N)=O)=C(O)[C@@]3(O)C(=O)C1=C2O (stereo partly specified)	-2%	.	.	0.3%	.	0	.
O=C1C(Cl)=C(N2CCOCC2)C(=O)N1c1ccc(Br)cc1	-15%	-4.8	-5	-1.4%	1%	1	-48%[inhibitor]
CC(C)CC1C(=O)N(Cc2cn(Cc3ccco3)nn2)CCS(=O)(=O)N1Cc1ccc(-c2ccc(F)cc2)cc1 (stereo unspecified)	.	.	.	-2.5%	.	-4	-60%[inhibitor]
CCOC(=O)c1nc2cc3n(c(C)c-2c1C)C(C)C(CC)=C3C (stereo unspecified)	-3%	.	.	22%	.	-11	4%
COc1ccc(CNC(=O)C2CCCN2C)cc1OC (stereo unspecified)	8%	-2.0	5	-0.6%	16%	-5	6%
